Source: PubChem (National Center for Advancing Translational Sciences (NCATS))
2A StopGo: FMDV 2A StopGo reporter, luciferase signal. human cells with a luciferase reporter of 2A StopGo recoding; control for the full effect not named in the record. Potency, µM (titrated, usually from 57.9 µM), for the others: top-dose signal change, negative = less light. 1.2% of 410,000 active; active = well fitted falling curve with a large enough effect; inconclusive = small, poorly fitted or top-dose-only effect; inactive = no such curve, though single readings can be large or run the other way; tested in HEK293T cells; also: % is scaled to controls: 0 for no effect and ±100 for the full control effect; nearly all actives have a fitted effect of over 45% in size; luciferase light after 4 h
Lassa entry inh: blocks Lassa virus binding to or entry into cells | Lassa virus pseudotype entry inhibition, cell reporter; control for the full effect not named in the record | Potency, µM (highest dose often 37.9 µM), inactives show top-dose activity change, negative = inhibition, usual class: inhibitors | 1.2% of 300,000 active | AID 540256; active means well fitted inhibition curve with a large enough effect; inconclusive means small, poorly fitted or top-dose-only effect, or effect the other way; inactive means flat fitted curve, though single readings scatter; tested in HEK293 cells; also: % is scaled to controls: 0 for no effect and ±100 for the full control effect; nearly all actives have a fitted effect of over 50% in size; luciferase read-out
NS1 function inh: inhibitors of influenza NS1 protein function; Potency, µM (highest dose often 46.1 µM), inactives show at the highest dose activity, positive = more growth; AID 2326; 0.4% of 270,000 active; S. cerevisiae slowed by influenza A NS1, growth recovery by OD600; active means well fitted rising curve with a large enough effect; inconclusive means small, poorly fitted or top-dose-only effect; inactive means no such curve, though single readings can be large or run the other way; also: nearly all actives have a fitted effect of over 50% in size
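S. cerevisiae expressing influenza A NS1, grown in glucose, washed, then diluted 1:100 into pH 6.0 -URA galactose medium with 23 nl compound. Growth recovery read as OD600; NS1-free strain serves as control.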
Cruzain inh noDet: cruzain (T. cruzi) inhibition without detergent. AID 1476. P25779. Potency, µM, for inactives: max response, negative = inhibition, usual class: inhibitors. 2.3% of 200,000 active. purified cruzain, Z-FR-AMC fluorescence, no detergent;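 also: plate controls were enzyme without inhibitor for no effect and buffer without enzyme for full effect; nearly all actives have a fitted effect of over 40% in size; top concentration of the series not given in the record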
Target sequence (P25779 123-467 limits assumed): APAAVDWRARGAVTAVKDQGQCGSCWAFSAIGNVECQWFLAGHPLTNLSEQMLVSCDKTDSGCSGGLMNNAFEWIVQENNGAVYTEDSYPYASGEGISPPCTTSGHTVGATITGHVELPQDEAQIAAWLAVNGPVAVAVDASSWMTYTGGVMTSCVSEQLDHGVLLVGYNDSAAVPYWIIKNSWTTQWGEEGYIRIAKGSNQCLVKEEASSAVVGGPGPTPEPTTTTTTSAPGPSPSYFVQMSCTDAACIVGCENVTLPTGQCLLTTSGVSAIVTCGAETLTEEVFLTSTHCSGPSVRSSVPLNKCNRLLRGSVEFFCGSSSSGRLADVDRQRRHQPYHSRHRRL
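Detergent-free condition (0.00005% Triton X-100) in acetate buffer pH 5.5 with DTT. 1.5 nM enzyme and compound were pre-mixed 15 min, then 2 uM Z-FR-AMC substrate added; reaction progress from fluorescence change between first and third reads (60 s).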
RE007 growth inh: less growth of the S. pombe RE007 Vpr strain | S. pombe RE007 Vpr strain, BacTiter-Glo ATP luminescence, 24 h; control for the full effect not named in the record | Potency, µM (titrated, usually from 92.2 µM), without a hit: top-dose activity change, negative = less growth | 0.21% of 360,000 active; active = well fitted falling curve with a large enough effect; inconclusive = small, poorly fitted or top-dose-only effect; inactive = no such curve, though single readings can be large or run the other way;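 also: % is scaled to controls: 0 for no effect and ±100 for the full control effect; nearly all actives have a fitted effect of over 50% in size; the assay follows cell death caused by Vpr and the record does not say whether a fall means rescue or toxicity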
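Fission yeast RE007 carrying one integrated HIV-1 vpr copy, seeded at OD 0.01 in PMG+AL medium with 23 nL pinned compound. Grown 24 h at 30 degrees; viability read by BacTiter-Glo luminescence after 5 min.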
SARS PLpro yeast: blocks SARS-CoV papain-like protease in a yeast assay. S. cerevisiae expressing SARS-CoV PLpro, growth rescue; control for the full effect not named in the record. Potency, µM (series often up to 32.9 µM), inactives show top-dose activity, positive = growth rescue. 0.19% of 330,000 active. AID 485353; active means well fitted rising curve with a large enough effect; inconclusive means small, poorly fitted or top-dose-only effect; inactive means no such curve, though single readings can be large or run the other way; also: 0% is about no effect; nearly all actives have a fitted effect of over 55% in size; growth read by luminescence after 48 h
MARV entry inh: inhibitors of Marburg virus binding or cell entry; Marburg virus pseudotyped entry inhibition, cell reporter; control for the full effect not named in the record; about a third of the inactives were read at about 46 µM; Potency, µM (titrated, usually from 37.8 µM), for the others: at the highest dose activity change, negative = inhibition, most hits filed as inhibitors; 1.8% of 300,000 active; active = well fitted inhibition curve with a large enough effect; inconclusive = small, poorly fitted or top-dose-only effect, or effect the other way; inactive = flat fitted curve, though single readings scatter; tested in HEK293 cells; about a fifth of its hits are not listed in these tables; also: % is scaled to controls: 0 for no effect and ±100 for the full control effect; luciferase read-out
Cruzain inh Det: cruzain (T. cruzi) inhibition with detergent. Potency, µM, inactives show max response, negative = inhibition, hits mostly inhibitors. P25779. purified cruzain, Z-FR-AMC fluorescence, 0.01% Triton. 0.43% of 200,000 active. AID 1478;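 also: plate controls were neutral wells for no effect and buffer without enzyme for full effect; nearly all actives have a fitted effect of over 40% in size; top concentration of the series not given in the record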
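In this qHTS format, compounds are incubated with 1.5 nM cruzain for 15 min at room temperature before 2 uM Z-FR-AMC is added. Release of AMC is followed at 360/450 nm, and progress is taken as the 60 s fluorescence difference.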
* marks the source's active call; other numbers are inactive results; [ ] = remark or other dose. Unless noted, calls follow the shape of the dose curve; as a rule, active = well fitted curve in the direction sought with a large enough effect; inconclusive = small, poorly fitted or top-dose-only effect, or another doubt; inactive = no such curve, though single readings can be large; an effect the other way counts as inactive or inconclusive. Potency is read from the fitted curve at half-maximal effect.

Results for COCCCNCCOCCOc1ccc(C)cc1Br ?
2A StopGo: -0.7%; Lassa entry inh: inconclusive; NS1 function inh: 1.0%; Cruzain inh noDet: 8.3%; RE007 growth inh: -8.0%; SARS PLpro yeast: -27.1%; MARV entry inh: -18.2%; Cruzain inh Det: 8.6%

Results for O=C(Cc1cccs1)Nc1ccccc1 ?
2A StopGo: 47.0%[activator]; NS1 function inh: -7.9%; RE007 growth inh: -21.8%; SARS PLpro yeast: 0.8%

How did O=C(NNS(=O)(=O)c1ccccc1[N+](=O)[O-])c1ccccc1[N+](=O)[O-] do in these assays?
2A StopGo: -20.3%; Lassa entry inh: 14.2%; NS1 function inh: -2.0%; Cruzain inh noDet: 5.1%; RE007 growth inh: 7.8%; SARS PLpro yeast: 0.3%; MARV entry inh: 14.5%; Cruzain inh Det: -0.3%

How did NS(=O)(=O)c1cc(C(=O)OCC(=O)NNC(=O)c2ccccc2)ccc1Cl do in these assays?
2A StopGo: -17.0%; Lassa entry inh: -8.1%; RE007 growth inh: -10.1%; MARV entry inh: 2.4%

What do the screens show for `O=[N+]([O-])c1ccc(N(CC2CO2)S(=O)(=O)c2ccccc2)cc1` (stereo not drawn)?
2A StopGo: -14.3%; Lassa entry inh: inconclusive; NS1 function inh: 17.6%; RE007 growth inh: -10.4%; SARS PLpro yeast: 0.7%; MARV entry inh: -14.0%[46.1 µM]

What do the screens show for `Oc1ccc(-c2nc(-c3ccc(O)c(O)c3)cs2)cc1`?
2A StopGo: 13.1%; Lassa entry inh: inconclusive; NS1 function inh: -18.1%; Cruzain inh noDet: inconclusive; RE007 growth inh: 6.5%; SARS PLpro yeast: -5.9%; MARV entry inh: inconclusive; Cruzain inh Det: -28.5%

Results for COc1ccc(CNc2ccc3c(c2)nc(C)n3C)cc1OC ?
2A StopGo: 30.2%[activator]; NS1 function inh: -7.9%; RE007 growth inh: 0.8%; SARS PLpro yeast: 1.2%

How did Cc1ccc(OCC(=O)N(Cc2cccs2)C2CCS(=O)(=O)C2)cc1 (stereo not drawn) do in these assays?
2A StopGo: -3.2%; Lassa entry inh: 16.5%; NS1 function inh: 3.1%; RE007 growth inh: -9.2%; SARS PLpro yeast: 0.3%; MARV entry inh: -20.5%[46.1 µM]

Results for CC(C)c1ccc[n+](-c2nc([O-])sc2C=O)c1 ?
2A StopGo: -2.4%; Lassa entry inh: -5.1%; NS1 function inh: -4.5%; RE007 growth inh: 5.2%; SARS PLpro yeast: 0.6%; MARV entry inh: 3.1%

How did O=C(Nc1ccc(S(=O)(=O)NCc2ccco2)cc1)C1CCCCC1 do in these assays?
2A StopGo: 11.5%; NS1 function inh: 2.8%; RE007 growth inh: 5.7%; SARS PLpro yeast: 1.2%; MARV entry inh: -21.0%[46.1 µM]

Results for CCS(=O)(=O)N1CCN(C(=O)CC(C)C)CC1 ?
2A StopGo: 9.9%; Lassa entry inh: 5.7%; NS1 function inh: -8.2%; Cruzain inh noDet: -9.5%; RE007 growth inh: -6.0%; SARS PLpro yeast: -3.8%; MARV entry inh: -1.0%; Cruzain inh Det: 3.0%

How did O=S(=O)(NCc1cccnc1)c1ccc2c(c1)OCCO2 do in these assays?
Lassa entry inh: -0.4%; NS1 function inh: 15.9%; Cruzain inh noDet: 7.4%; RE007 growth inh: -6.0%; SARS PLpro yeast: 17.8%; MARV entry inh: 0.2%; Cruzain inh Det: 0.6%

What do the screens show for `CN1CCN(NC(=O)Nc2ccc([N+](=O)[O-])cc2)CC1`?
2A StopGo: -9.7%; NS1 function inh: -8.3%; RE007 growth inh: 11.1%; SARS PLpro yeast: 8.8%

How did O=C(NCc1ccco1)C1(S(=O)(=O)c2ccccc2)CC=CC1 do in these assays?
2A StopGo: -5.6%; NS1 function inh: 10.9%; RE007 growth inh: -18.0%; SARS PLpro yeast: 2.8%

What do the screens show for `CN1CCN(CCCNC(=O)c2nnc(Cc3c(F)cccc3Cl)o2)CC1`?
2A StopGo: -5.7%; Lassa entry inh: 20.0%; NS1 function inh: 2.2%; Cruzain inh noDet: -13.3%; RE007 growth inh: -0.5%; SARS PLpro yeast: -4.7%; MARV entry inh: 0.7%; Cruzain inh Det: 4.2%

Results for Cc1ccc2nc(-c3ccc(F)cc3)nc(SCC(=O)NCC3CCCO3)c2c1 (stereo not drawn) ?
2A StopGo: 7.1%; Lassa entry inh: 16.2%[46.1 µM]; NS1 function inh: 12.1%; RE007 growth inh: 1.6%; SARS PLpro yeast: 2.4%; MARV entry inh: -9.2%[46.1 µM]

Results for COC(=O)/C=C1/C(=O)N/C(=N\c2nc(C)cc(C)n2)N1c1ccc(OC)cc1 ?
2A StopGo: -6.2%; Lassa entry inh: inconclusive; NS1 function inh: -6.4%; Cruzain inh noDet: 2.5%; RE007 growth inh: -4.3%; SARS PLpro yeast: -14.5%; MARV entry inh: -2.1%[46.1 µM]; Cruzain inh Det: -3.9%

How did CC(=O)N(C(C)=O)c1ccc2nc(C)[nH]c(=O)c2c1 do in these assays?
2A StopGo: 16.4%; Lassa entry inh: 6.9%; NS1 function inh: -8.0%; Cruzain inh noDet: 1.9%; RE007 growth inh: 9.7%; SARS PLpro yeast: 14.7%; MARV entry inh: -3.1%; Cruzain inh Det: 3.1%

What do the screens show for `COc1ccccc1/C=C/C=N/n1c(C)nnc1C`?
2A StopGo: 6.9%; Lassa entry inh: -1.4%; NS1 function inh: -1.3%; RE007 growth inh: -27.9%; SARS PLpro yeast: -0.8%; MARV entry inh: 2.2%[46.1 µM]

Results for CC(NC(=O)c1cc(Sc2ccc(F)cc2F)nc2ccccc12)c1ccccc1 (stereo not drawn) ?
2A StopGo: inconclusive; Lassa entry inh: inconclusive; Cruzain inh noDet: -3.1%; Cruzain inh Det: 1.7%

How did CCNc1c(NS(=O)(=O)c2ccc(Cl)s2)c(=O)oc2ccccc12 do in these assays?
2A StopGo: -10.9%; Lassa entry inh: 1.7%; NS1 function inh: 10.6%; RE007 growth inh: -7.0%; SARS PLpro yeast: -6.5%; MARV entry inh: 2.6%[46.1 µM]

How did COc1cccc(OC)c1C(=O)Nc1ccc(CN2CCCCC2)cc1 do in these assays?
2A StopGo: 10.7%; Lassa entry inh: -16.5%; NS1 function inh: 2.0%; Cruzain inh noDet: 2.1%; RE007 growth inh: -2.9%; SARS PLpro yeast: 1.5%; MARV entry inh: -0.9%; Cruzain inh Det: 4.0%

What do the screens show for `COc1ccc(-n2nc(C(=O)Nc3ccc(Cl)cn3)c3c4ccccc4n(C)c3c2=O)cc1`?
2A StopGo: 0.0%; Lassa entry inh: 11.0%[46.1 µM]; Cruzain inh noDet: 3.4%; MARV entry inh: -10.2%[46.1 µM]; Cruzain inh Det: 1.1%

Results for Clc1ccccc1CSc1nnc(/C=C/c2ccccc2)o1 ?
2A StopGo: 18.4%; Lassa entry inh: -3.4%; NS1 function inh: -0.8%; Cruzain inh noDet: -4.7%; RE007 growth inh: 0.3%; SARS PLpro yeast: -5.5%; MARV entry inh: 1.9%[46.1 µM]; Cruzain inh Det: -7.1%

How did COc1cc(/C=C/C(=O)NCc2ccccn2)cc(OC)c1OC do in these assays?
2A StopGo: -10.2%; Lassa entry inh: inconclusive; NS1 function inh: -11.5%; Cruzain inh noDet: -13.5%; RE007 growth inh: 17.4%; SARS PLpro yeast: 1.5%; MARV entry inh: 17.2%; Cruzain inh Det: -4.0%

What do the screens show for `Cc1cccc(OCC(=O)N2CCc3ccccc3C2)c1`?
2A StopGo: 39.5%[activator]; Lassa entry inh: -3.0%; NS1 function inh: -14.5%; RE007 growth inh: -2.5%; SARS PLpro yeast: -1.2%; MARV entry inh: inconclusive

Results for Cc1[nH]n(-c2cccc(Cl)c2)c(=O)c1C=NC12CN3CN(CN(C3)C1)C2 ?
2A StopGo: -11.5%; Lassa entry inh: 16.8%; NS1 function inh: 8.1%; Cruzain inh noDet: 1.5%; RE007 growth inh: 16.0%; SARS PLpro yeast: -12.9%; MARV entry inh: inconclusive; Cruzain inh Det: 1.0%

What do the screens show for `COc1cc(OC)c(NC(=O)n2ncc3cc(Cl)ccc32)cc1Cl`?
2A StopGo: -7.2%; Lassa entry inh: 3.1%[46.1 µM]; Cruzain inh noDet: 1.0%; MARV entry inh: -9.2%[46.1 µM]; Cruzain inh Det: -10.6%

Results for NC1=CC(=O)c2cccc3cccc1c23 ?
NS1 function inh: -37.5%; Cruzain inh noDet: inconclusive; SARS PLpro yeast: -4.8%; Cruzain inh Det: -0.4%

What do the screens show for `Oc1ccc2ccccc2c1/C=N/Nc1ccccc1`?
2A StopGo: 19.9%; Lassa entry inh: -12.7%; NS1 function inh: -3.9%; Cruzain inh noDet: -7.4%; RE007 growth inh: 88.6%; SARS PLpro yeast: -12.2%; MARV entry inh: -3.1%; Cruzain inh Det: -6.1%

How did COc1cccc(NS(=O)(=O)c2cc(C)sc2C)c1 do in these assays?
2A StopGo: 73.5%[activator]; Lassa entry inh: 0.7%; NS1 function inh: -8.5%; Cruzain inh noDet: -6.5%; RE007 growth inh: -6.4%; SARS PLpro yeast: 12.4%; MARV entry inh: -2.8%; Cruzain inh Det: -1.9%

Results for COc1ccc(CCN=c2c([N+](=O)[O-])nn(-c3cccc(C)c3)n2O)cc1OC ?
2A StopGo: inconclusive; NS1 function inh: -9.0%; RE007 growth inh: -1.3%; SARS PLpro yeast: -4.6%

What do the screens show for `CCN(CC)C(=O)C(=O)c1cccn1-c1ccc(C#N)cc1`?
2A StopGo: 6.7%; NS1 function inh: 2.1%; RE007 growth inh: 7.6%; SARS PLpro yeast: 0.2%

What do the screens show for `COc1ccc(NC(=O)COC(=O)Cc2ccc(Br)cc2)cc1`?
2A StopGo: -8.4%; Lassa entry inh: 16.5%; NS1 function inh: 0.7%; RE007 growth inh: -0.2%; SARS PLpro yeast: 1.2%; MARV entry inh: inconclusive

What do the screens show for `C(=N\n1cnnc1)/c1cccnc1`?
2A StopGo: 16.2%; Lassa entry inh: inconclusive; NS1 function inh: 9.4%; Cruzain inh noDet: -5.8%; RE007 growth inh: 2.9%; SARS PLpro yeast: 9.9%; MARV entry inh: 6.2%; Cruzain inh Det: 2.6%

How did Cc1noc(C)c1COc1ccccc1C(=O)NC(C)CCc1ccccc1 (stereo not drawn) do in these assays?
2A StopGo: -12.1%; Lassa entry inh: inconclusive; RE007 growth inh: -5.9%; MARV entry inh: inconclusive

Rows are unselected; overall some 4.6% were active at least once.
